VDR inh: inhibitors of human vitamin D receptor. P11473. VDR-SRC2-3 peptide fluorescence polarization, 2 h. Potency, µM, for inactives: max response, negative = inhibition, most hits filed as inhibitors. 400,000 tested, 0.93% active. AID 504847; active = well fitted inhibition curve with a large enough effect; inconclusive = small, poorly fitted or top-dose-only effect, or another doubt; inactive = no such curve, though single readings can be large or run the other way; also: series mostly up to about 120 µM
Target sequence (P11473 whole entry, looked up): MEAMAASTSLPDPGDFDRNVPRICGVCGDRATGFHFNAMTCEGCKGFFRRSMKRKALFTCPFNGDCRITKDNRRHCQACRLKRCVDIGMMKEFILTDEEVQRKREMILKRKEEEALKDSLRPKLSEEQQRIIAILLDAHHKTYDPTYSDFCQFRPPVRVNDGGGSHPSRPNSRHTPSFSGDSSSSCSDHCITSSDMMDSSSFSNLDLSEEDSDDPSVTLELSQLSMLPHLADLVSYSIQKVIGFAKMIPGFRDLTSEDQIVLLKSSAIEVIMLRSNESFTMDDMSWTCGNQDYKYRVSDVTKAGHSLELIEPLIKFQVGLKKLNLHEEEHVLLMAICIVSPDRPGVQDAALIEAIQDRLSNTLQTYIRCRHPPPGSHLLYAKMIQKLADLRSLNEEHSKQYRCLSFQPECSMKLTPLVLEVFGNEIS
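The screen uses fluorescence polarization to detect compounds that interfere with recruitment of the SRC2-3 coactivator peptide to VDR; plates are read after 2 h at room temperature.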
* = called active by the depositor; & = joins results of further samples; [ ] = remark or other dose. % is scaled to controls: 0 for no effect and ±100 for the full control effect; potency is read from the fitted curve at half-maximal effect. These rows are one share of the data; rates above refer to the full screens.

COc1ccccc1CCc1nnc(CCC(=O)NCC[C@@H]2C[C@@H]3C=C[C@H]2C3)o1 was read as VDR inh -10.2%.
`CCOC(=O)c1cc(-c2ccccc2)sc1NC(=O)CSc1nncs1` gave VDR inh -3.9%.
Screening N#Cc1cc2c(nc1SC1CC(=O)N(c3ccccc3)C1=O)CCC2 (stereo not drawn) returned VDR inh -20.6%.
Screening CCC(=O)C1=C(O)C(c2cccc(Oc3ccccc3)c2)CCC1=O (stereo not drawn) returned VDR inh -1.5%.
`COCCNC(=S)NNC(=O)CSCc1ccc(Cl)cc1Cl` gave VDR inh -8.6%.
Screening CCOc1ccc(/C=N/NC(=O)c2cc(-c3cccn3C)n[nH]2)cc1 returned VDR inh -8.7%.
For CCC(C)N(C(=O)COC(=O)CCc1c[nH]c2ccccc12)C1CCS(=O)(=O)C1 (stereo not drawn) the results were VDR inh 10.5%.
For CCc1nnc(NC(=O)CSc2ccc(-c3cccs3)nn2)s1 the results were VDR inh -3.7%.
Screening CCOC(=O)c1cnc2c(C#N)cnn2c1N returned VDR inh -17.0%.
For COc1ccc(S(=O)(=O)NCC2CCC(C(=O)NCCC(C)C)CC2)cc1 (stereo not drawn) the results were VDR inh -13.9%.
Screening O=C(NCCN1CCOCC1)c1cccc(S(=O)(=O)Nc2ccc(F)cc2)c1 returned VDR inh -9.7%.
Screening CCOc1ccc(C(=O)N(Cc2ccc(OC)cc2)Cc2cc3cc(OC)ccc3[nH]c2=O)cc1 returned VDR inh -0.6%.
`CCOc1cc(C2Nc3ccccc3C(=O)N2c2ccccc2)ccc1O` (stereo not drawn) gave VDR inh 4.4%.
Screening CCOC(=O)CSc1nc(C2CC2)cc(-c2ccc(F)cc2)c1C#N returned VDR inh -1.1%.
Cc1ccc(C)c(NC(=O)CCN2CCc3ccccc3C2)c1 was read as VDR inh 2.1%.
COc1ccccc1Oc1ccc(S(=O)(=O)NCc2ccccn2)cc1 was read as VDR inh 8.4%.
`Cc1ccc(SCCC(=O)NC(C)(C)C)cc1` gave VDR inh -8.6%.
`COc1ccc(Nc2nnc(SCc3cc([N+](=O)[O-])cc4c3OCOC4)s2)cc1` gave VDR inh -6.6%.
Screening Cc1cc(C)cc(NC(=O)N2CCC(c3nc4ccccc4o3)CC2)c1 returned VDR inh 2.5%.
`COc1cc(C(=O)Nc2ccc(C(N)=O)cc2)c([N+](=O)[O-])cc1OC` gave VDR inh 16.4%.
`Cc1ccc(CNc2nc3c(S(=O)(=O)c4ccccc4)nnn3c3ccsc23)cc1` gave VDR inh 9.5%.
`CC1CN(C(=O)CCC(=O)NCc2ccccn2)c2ccccc2O1` (stereo not drawn) gave VDR inh -14.2%.
`COC(=O)C1=C(CS(=O)(=O)c2ccc(OC)cc2)NC(=O)NC1c1ccccc1` (stereo not drawn) gave VDR inh 0.7%.
CCc1ccccc1NC(=O)C(C)n1nc(-c2ccc(C)c(C)c2)ccc1=O (stereo not drawn) was read as VDR inh 0.2%.
For O=C1N2CCCc3cccc(c32)C12Nc1ccccc1S2 (stereo not drawn) the results were VDR inh 6.5%.
Screening COc1ccc(OC)c(NC(=O)CSc2nc(C)cs2)c1 returned VDR inh 1.4%.
`Cn1c(=O)[nH]c2c(c(C(=O)O)nn2C)c1=O` gave VDR inh 2.9%.
For O=C(CCC1CCCC1)NCCS(=O)(=O)N1CCN(c2ccccc2F)CC1 the results were VDR inh 2.2%.
`CCSc1nc(C)c(C)c(=O)[nH]1` gave VDR inh -1.1%.
For COCCCN(C(=O)C1CCCCC1)c1c(N)n(Cc2ccccc2)c(=O)[nH]c1=O the results were VDR inh 12.3%.
Screening COCc1cc(=O)[nH]c(SCCS(=O)(=O)c2ccc(C)cc2)n1 returned VDR inh 1.5%.
O=C(NCCCO)C(=O)Nc1cc2c3c(c1)CCN3C(=O)CC2 was read as VDR inh -13.8%.
Screening COc1cccc(CNC(=O)C(=O)NCC2CCCO2)c1 (stereo not drawn) returned VDR inh 8.1%.
`Cc1nn2c(-c3cccc(NC(=O)c4ccc(Cl)cc4)c3)nnc2c2ccccc12` gave VDR inh -4.0%.
For NS(=O)(=O)c1ccc(CCNC(=O)/C=C/c2cccc([N+](=O)[O-])c2)cc1 the results were VDR inh 6.3%.
For CN1CCC(N(C)C(=O)CCc2nc3ccccc3c(=O)[nH]2)CC1 the results were VDR inh 0.6%.
Screening CCOC(=O)c1sc(=S)n(C)c1NC(=O)c1cccc(Br)c1 returned VDR inh inconclusive.
Screening COc1ccc(Nc2nc(-c3sc(N)nc3C)cs2)cc1 returned VDR inh -23.2%.
For Cc1ccc(OCc2cc(C(=O)N(C)CCn3ccnc3C)no2)cc1C the results were VDR inh -8.1%.
`CC(C)COc1cccc(C(=O)N2CCN(C(=O)c3ccco3)CC2)c1` gave VDR inh -4.0%.
CCN1C[C@@H]2[C@@H]3C(=O)N(Cc4ccccc4)C(=O)[C@@H]3[C@](Cc3ccccc3)(C1=O)N2C(=O)c1ccc(C(C)(C)C)cc1 was read as VDR inh 2.2%.
Screening CCCn1nnc(NC(=S)NC(=O)C(C)(C)C)n1 returned VDR inh -17.8%.
Screening CCCCn1c(SCC(=O)OCC)nnc1-c1ccoc1C returned VDR inh -6.6%.
`COC(=O)c1ccc(OC(C)C(=O)c2ccc(C)cc2)cc1` (stereo not drawn) gave VDR inh -8.7%.
CCNS(=O)(=O)c1ccc(NC(=O)c2ccc(Cn3cc([N+](=O)[O-])cn3)o2)cc1 was read as VDR inh -20.8%.
`CC(C(=O)Nc1ccccc1)N(C)Cc1cccs1` (stereo not drawn) gave VDR inh 4.0%.
`COc1cc(CN2CCCN(C)CC2)cc([N+](=O)[O-])c1O` gave VDR inh inconclusive.
Screening O=C(Nc1ccccc1-c1ccccc1)c1ccco1 returned VDR inh -7.5%.
For COc1ccc(NC(=O)Cn2ncc3c2-c2ccccc2OC3)cc1Cl the results were VDR inh 9.8%.
Screening COc1ccc(S(=O)(=O)C(C#N)c2nc3ccccc3nc2N2CCCC(C)C2)cc1 (stereo not drawn) returned VDR inh 5.2%.
Cc1cc(NC(=O)c2ccc(Br)cc2)nc(C)n1 was read as VDR inh -21.2%.
For CCC1Nc2ncnc(N3CCCCC3)c2N(Cc2ccc(OC)cc2)C1=O (stereo not drawn) the results were VDR inh -20.3%.
COc1cc(S(=O)(=O)NCC2OCCc3ccccc32)ccc1-n1cnnn1 (stereo not drawn) was read as VDR inh -11.3%.
Cn1c(SCc2cc(=O)c3cc(Cl)ccc3[nH]2)nnc1-c1ccccc1 was read as VDR inh 12.5%.
`COC(=O)c1cc(NC(=O)C2CC(=O)NC(=NCc3ccc(OC)cc3)S2)cc(C(=O)OC)c1` (stereo not drawn) gave VDR inh 7.9%.
For Cc1csc2nc(COC(=O)c3cccc(NC(=O)COc4ccccc4Cl)c3)cc(=O)n12 the results were VDR inh 6.3%.
`CCOc1ccc(C(=O)NCC(=O)NCCSc2ccc(Br)cc2)cc1OCC` gave VDR inh -14.5%.
`NC(=O)c1ccccc1` gave VDR inh 6.4%&-21.0%.
Screening O=C(CCc1ccccc1)NCc1cccnc1 returned VDR inh -9.5%.
NC[C@@H]1O[C@H](O[C@H]2[C@H](O)[C@H](O[C@@H]3O[C@H](CO)[C@@H](O)[C@H](N)[C@@H]3O)[C@@H](N)C[C@H]2N)[C@@H](O)[C@H](O)[C@@H]1O was read as VDR inh 2.6%.
For COc1ccccc1Cn1c(-c2ccco2)nc2nc3ccccc3nc21 the results were VDR inh -2.9%.
`Cc1onc(-c2ccccc2)c1C(=O)NCc1ccc(F)cc1` gave VDR inh 8.9%.
For CCCCN(C)CCNC(=O)C1CCN(S(=O)(=O)c2cccc3nsnc23)CC1 the results were VDR inh 19.8%.
NC(=O)c1ccsc1NC(=O)CN1C(=O)NC2(CCCC2)C1=O was read as VDR inh 18.2%.
`COc1ccccc1CN(Cc1cc2c(C)ccc(C)c2[nH]c1=O)Cc1nnnn1Cc1ccco1` gave VDR inh 2.7%.
For CC(C)CCNC(=O)CNC(=O)c1cccs1 the results were VDR inh 3.5%.
`CCCC1(C(=O)O)NC(c2ccccc2O)C2C(=O)N(c3cccc(Cl)c3)C(=O)C21` (stereo not drawn) gave VDR inh 4.8%.
S=C(NCCc1ccccc1)N1CCN(Cc2ccc(Cl)c(Cl)c2)CC1 was read as VDR inh 10.2%.
Screening O=C(OCc1nc2scc(-c3ccccc3)c2c(=O)[nH]1)c1cc(Cl)ccc1[N+](=O)[O-] returned VDR inh -9.2%.
COCCN(C(=O)CNC(=O)c1cccs1)C(C(=O)NC1CCCCC1)c1ccco1 (stereo not drawn) was read as VDR inh -4.0%.
Screening CC(C)[C@H](NC(=O)c1ccco1)C(=O)OCC(=O)Nc1cccc(F)c1 returned VDR inh -23.9%.
Screening CCOc1ccc(CNCCCSc2ncccn2)cc1 returned VDR inh -3.7%.
COc1ccc(C(NC(C)=O)c2ccc3cccnc3c2O)c(OC)c1 (stereo not drawn) was read as VDR inh 16.9%.
`COc1ccc(N2CCN(CCNC(=O)CCCn3c(=O)[nH]c4cc(Cl)ccc4c3=O)CC2)cc1` gave VDR inh 13.9%.
Screening O=c1oc(-c2ccccc2NS(=O)(=O)c2ccc(F)cc2)nc2ccccc12 returned VDR inh -5.1%.
`COc1cccc(NC(=O)CN(C)C(=O)c2ccc3c(c2)C(=O)N(CCC(C)C)C3=O)c1` gave VDR inh 10.8%.
Screening CCOC(=O)CSc1cc(C)nc(N)n1 returned VDR inh -13.1%.
Screening CC(C)c1nn2c(=O)cc(COC(=O)c3ccco3)nc2s1 returned VDR inh 2.2%.
`CCc1ccc(-n2c(=O)c3c4c(sc3n(Cc3ccc(C)cc3)c2=O)CCC4)cc1` gave VDR inh -12.2%.
Screening O=C1CCC(Cc2ccccc2)N1 (stereo not drawn) returned VDR inh -0.9%.
For CC1CC(C)CN(C(=O)COC(=O)c2ccc(N3CCCC3=O)cc2)C1 (stereo not drawn) the results were VDR inh 1.7%.
CC1CCCCN1C(=O)c1ccc(C(=O)N2CCCCC2C)cc1 (stereo not drawn) was read as VDR inh 15.1%.
For CCOc1cccc2cc(C(=O)NCc3ccc(F)cc3)c(=N)oc12 the results were VDR inh 10.4%.
Cc1cccc(NC(=O)c2ccc(CN3CCc4ccccc4C3)cc2)c1C was read as VDR inh 0.9%.
Screening CCCc1cc(C(=O)NCC(C)C)no1 returned VDR inh -6.8%.
COc1ccc(S(=O)(=O)N2CCCCCC2)cc1C(=O)Nc1cc(C)ccn1 was read as VDR inh -1.1%.
COc1ccc(OC)c(S(=O)(=O)N2CCN(C34CC5CC(CC(C5)C3)C4)CC2)c1 was read as VDR inh 4.4%.
COc1cccc(/C=N/Nc2ccccc2C(=O)O)c1O was read as VDR inh 6.2%.
For CCc1nnc(SCc2ccc([N+](=O)[O-])cc2)nc1CC the results were VDR inh -16.2%.
Screening Fc1ccc(-n2ncc3c(Nc4ccc(Oc5ccc(Cl)cc5)cc4)ncnc32)cc1 returned VDR inh 3.0%.
COc1ccc(C(=O)C[n+]2ccc(-c3nnc4n3CCC4)cc2)cc1 was read as VDR inh -13.2%.
For Cc1ccccc1C(C(=O)NC1CCCCC1)N(C(=O)CNC(=O)c1ccco1)c1cccnc1 (stereo not drawn) the results were VDR inh -17.7%.
For Cc1ccc2oc(-c3cccc(NC(=O)c4ccc(Br)o4)c3C)nc2c1 the results were VDR inh 16.5%.
`CCOC(=O)c1c(NC(=O)NC(C)(C)C)sc2c1CCN(C)C2` gave VDR inh 0.1%.
Screening COc1ccc(NC(=O)CN(C)C(=O)c2ccc(NS(=O)(=O)c3ccc4[nH]c(=O)[nH]c4c3)cc2)cc1 returned VDR inh -3.8%.
For CC(C)(C)Nc1nc(Cl)nc(Nc2ccccc2)n1 the results were VDR inh -12.0%.
Cc1ccc2sc(N(CCCN(C)C)C(=O)c3ccco3)nc2c1C was read as VDR inh 7.5%.
Screening COC(=O)c1cc(NC(=O)c2cc(-c3ccc(Cl)cc3)oc2C(F)(F)F)ccc1N1CCOCC1 returned VDR inh 4.9%.
`COc1cc(C(=O)OCC(=O)Nc2ccc(S(=O)(=O)N3CCCC3)cc2)cc(OC)c1OC` gave VDR inh 32.3%[activator].
